From PubChem
StopGo reporter: High Throughput Screening for Foot and Mouth Disease Virus Antivirals; human cells with a luciferase reporter of 2A StopGo recoding; control for the full effect not named in the record; Potency, µM (series often up to 57.9 µM), inactives show top-dose signal change, negative = less light; hit rate 1.2% among 410,000; active = well fitted falling curve with a large enough effect; inconclusive = small, poorly fitted or top-dose-only effect; inactive = no such curve, though single readings can be large or run the other way; tested in HEK293T cells; note: % is set by controls: 0 for no effect and ±100 for the full control effect; nearly all actives have a fitted effect of over 45% in size; luciferase light after 4 h
Cruzain noTriton: qHTS Assay for Promiscuous and Specific Inhibitors of Cruzain (without detergent); Cruzipain (Trypanosoma cruzi), P25779; purified cruzain, Z-FR-AMC fluorescence, no detergent; Potency, µM, inactives show max response, negative = inhibition, hits mostly inhibitors; hit rate 2.3% among 200,000; AID 1476, 2009;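 note: plate controls were enzyme without inhibitor for no effect and buffer without enzyme for full effect; nearly all actives have a fitted effect of over 40% in size; top concentration of the series not given in the record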
Target sequence (P25779 123-467 limits assumed): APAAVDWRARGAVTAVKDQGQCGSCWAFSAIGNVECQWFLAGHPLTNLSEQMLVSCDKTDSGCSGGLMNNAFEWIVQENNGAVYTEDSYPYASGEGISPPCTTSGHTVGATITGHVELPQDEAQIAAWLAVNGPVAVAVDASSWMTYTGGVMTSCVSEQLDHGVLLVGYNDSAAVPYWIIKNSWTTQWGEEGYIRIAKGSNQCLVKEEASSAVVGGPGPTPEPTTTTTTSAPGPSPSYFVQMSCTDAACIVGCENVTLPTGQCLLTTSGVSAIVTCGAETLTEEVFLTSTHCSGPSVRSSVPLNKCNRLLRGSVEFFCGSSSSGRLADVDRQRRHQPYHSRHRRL
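Purified cruzain at 1.5 nM, pre-incubated 15 min with compound at room temperature in 100 mM sodium acetate pH 5.5, 5 mM DTT, 0.00005% Triton X-100. Reaction started with 2 uM Z-FR-AMC; AMC fluorescence increase over 60 s gives rate.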
Lassa entry inh: qHTS for Inhibitors of binding or entry into cells for Lassa Virus. Potency, µM (highest dose often 37.9 µM), inactives show at the top dose activity change, negative = inhibition, usual class: inhibitors. hit rate 1.2% among 300,000. Lassa virus pseudotype entry inhibition, cell reporter; control for the full effect not named in the record; active means well fitted inhibition curve with a large enough effect; inconclusive means small, poorly fitted or top-dose-only effect, or effect the other way; inactive means flat fitted curve, though single readings scatter; tested in HEK293 cells; note: % is set by controls: 0 for no effect and ±100 for the full control effect; nearly all actives have a fitted effect of over 50% in size; luciferase read-out
SARS PLpro yeast: qHTS of Yeast-based Assay for SARS-CoV PLP. S. cerevisiae expressing SARS-CoV PLpro, growth rescue; control for the full effect not named in the record. Potency, µM (titrated, usually from 32.9 µM), without a hit: top-dose activity, positive = growth rescue. hit rate 0.19% among 330,000. AID 485353, 2010; active means well fitted rising curve with a large enough effect; inconclusive means small, poorly fitted or top-dose-only effect; inactive means no such curve, though single readings can be large or run the other way; note: 0% is about no effect; nearly all actives have a fitted effect of over 55% in size; growth read by luminescence after 48 h
Cruzain inh Det: qHTS Assay for Promiscuous and Specific Inhibitors of Cruzain (with detergent). Cruzipain (Trypanosoma cruzi), P25779. purified cruzain, Z-FR-AMC fluorescence, 0.01% Triton. hit rate 0.43% among 200,000. Potency, µM, without a hit: max response, negative = inhibition, actives largely listed as inhibitors;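 note: plate controls were neutral wells for no effect and buffer without enzyme for full effect; nearly all actives have a fitted effect of over 40% in size; top concentration of the series not given in the record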
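Cysteine protease activity tested under reducing, mildly acidic conditions (100 mM sodium acetate pH 5.5, 5 mM DTT) plus 0.01% Triton X-100. Cruzain 1.5 nM; substrate Z-FR-AMC 2 uM; 15 min compound preincubation at room temperature.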
MARV entry inh: qHTS for inhibitors of binding or entry into cells for Marburg Virus | Marburg virus pseudotyped entry inhibition, cell reporter; control for the full effect not named in the record; about a third of the inactives were read at about 46 µM | Potency, µM (series often up to 37.8 µM), for the others: top-dose activity change, negative = inhibition, hits mostly inhibitors | hit rate 1.8% among 300,000 | AID 540276, 2011; active = well fitted inhibition curve with a large enough effect; inconclusive = small, poorly fitted or top-dose-only effect, or effect the other way; inactive = flat fitted curve, though single readings scatter; tested in HEK293 cells; about a fifth of its hits are not listed in these tables; note: % is set by controls: 0 for no effect and ±100 for the full control effect; luciferase read-out
NS1 inh: qHTS Assay for Inhibitors of Influenza NS1 Protein Function | hit rate 0.4% among 270,000 | AID 2326, 2010 | S. cerevisiae slowed by influenza A NS1, growth recovery by OD600 | Potency, µM (titrated, usually from 46.1 µM), for inactives: top-dose activity, positive = more growth; active means well fitted rising curve with a large enough effect; inconclusive means small, poorly fitted or top-dose-only effect; inactive means no such curve, though single readings can be large or run the other way; note: nearly all actives have a fitted effect of over 50% in size
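S. cerevisiae expressing influenza A NS1, grown in glucose, washed, then diluted 1:100 into pH 6.0 -URA galactose medium with 23 nl compound. Growth recovery read as OD600; NS1-free strain serves as control.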
RE007 growth inh: qHTS Assay for Inhibitors of the HIV-1 protein Vpr | S. pombe RE007 Vpr strain, BacTiter-Glo ATP luminescence, 24 h; control for the full effect not named in the record | Potency, µM (top dose mostly 92.2 µM), inactives show at the top dose activity change, negative = less growth | hit rate 0.21% among 360,000; active = well fitted falling curve with a large enough effect; inconclusive = small, poorly fitted or top-dose-only effect; inactive = no such curve, though single readings can be large or run the other way;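 note: % is set by controls: 0 for no effect and ±100 for the full control effect; nearly all actives have a fitted effect of over 50% in size; the assay follows cell death caused by Vpr and the record does not say whether a fall means rescue or toxicity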
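Fission yeast strain RE007, carrying one chromosomally integrated HIV-1 vpr copy, was seeded at OD 0.01 in PMG+AL medium with 23 nL pinned compound. After 24 h at 30 °C and 99% humidity, viability was read by BacTiter-Glo luminescence.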
Starred values were filed as active, the others as inactive; ? = inconclusive; nt = not tested or not shown; [ ] = remark or other dose. Unless noted, calls come from the whole dose curve; as a rule, active = well fitted curve in the direction sought with a large enough effect; inconclusive = small, poorly fitted or top-dose-only effect, or another doubt; inactive = no such curve, though single readings can be large; an effect the other way counts as inactive or inconclusive. Potency is the fitted concentration of half-maximal effect.

SMILES	StopGo reporter	Cruzain noTriton	Lassa entry inh	SARS PLpro yeast	Cruzain inh Det	MARV entry inh	NS1 inh	RE007 growth inh
Cc1cc(/C=C2/NC(=O)NC2=O)c(C)n1-c1ccccn1	20.4%	-7.6%	-15.3%	-17.1%	-9.8%	?	0.7%	23.2%
Cc1ccc(NC2=NCC(=O)N2Cc2ccc3c(c2)OCO3)c(C)c1	1.4%	-11.7%	22.3%	-2.8%	11.3%	-31.7%[46.1 µM]	-11.4%	-4.9%
CCN(CC)CCN(C(=O)CCOc1ccccc1)c1nc2c(F)cc(F)cc2s1	-24.1%	nt	-0.1%	-0.2%	nt	-10.2%[46.1 µM]	nt	-1.7%
OCC1(CCc2ccccc2)CCN(C/C=C/c2ccccc2)CC1	-20.4%	nt	nt	-4.0%	nt	nt	-1.1%	-1.7%
COc1ccc(-c2sc(C(=O)c3ccc(Cl)cc3Cl)cc2CC(=O)O)cc1	27.8%	nt	?	-6.3%	nt	?	6.8%	1.1%
O=C1c2ccccc2C(=O)N1CNc1ccccc1	-15.5%	-4.3%	1.3%	?	8.2%	-0.7%	?	10.5%
Clc1ccc(C2=NCCN2)cc1	-10.4%	nt	nt	-1.0%	nt	nt	-4.4%	-14.3%
CCOC(=O)Cn1c(=O)oc2cc(S(=O)(=O)N3CCC(N4CCCCC4)CC3)ccc21	-13.1%	-8.1%	nt	0.3%	8.4%	4.8%	-4.5%	13.9%
COc1cc(CO)c(OC)c([N+](=O)[O-])c1	-3.0%	nt	nt	6.2%	nt	nt	2.8%	-0.2%
O=C(NC(N1CCCC1)C(Cl)(Cl)Cl)c1ccccc1 (stereo unspecified)	16.4%	2.2%	-21.6%	-1.8%	0.2%	-23.2%	3.2%	-4.0%
Cc1ccc(C(=O)Nc2cc(C(F)(F)F)ccc2N2CCCCC2)cc1[N+](=O)[O-]	0.0%	-21.5%	3.1%	4.3%	-0.2%	6.4%	-1.4%	-4.5%
O=C(Nc1nnc(C2=COCCO2)o1)c1ccc([N+](=O)[O-])s1	12.3%	nt	3.6%[46.1 µM]	-4.5%	nt	9.2%[46.1 µM]	-17.1%	-7.4%
O=C(COc1ccc(Cl)cc1)Nc1sc2c(c1C(=O)Nc1cccc(Cl)c1)CCCC2	-14.9%	2.9%	5.1%[46.1 µM]	nt	-3.1%	nt	nt	nt
COc1ccc(CCC(=O)Nc2ccc(S(=O)(=O)N3CCOCC3)cc2)cc1	9.3%	nt	-11.7%[46.1 µM]	1.0%	nt	-0.8%[46.1 µM]	7.2%	-4.6%
Clc1cccc(Cl)c1NC1=NCCC1	7.4%	-3.7%	-9.8%	-3.5%	4.0%	9.6%	10.6%	-2.7%
CNc1nn(-c2cccc(Cl)c2)nc1N	38.2%[activator]	-4.6%	-0.5%	-27.5%	-12.7%	?	?	?
CC(=O)N(C(C)=O)c1cccc2c(N(C(C)=O)C(C)=O)cccc12	-13.6%	-6.5%	-0.2%	1.5%	4.3%	-24.2%	?	3.6%
COC(=O)C1=CN(Cc2ccc(OC)cc2)C=C(C(=O)OC)C1c1cc(OC)c(OC)c(OC)c1	-6.8%	nt	?	0.4%	nt	?	3.7%	9.9%
CC(=O)NC1=NN(C(C)=O)C(C)(c2cccnc2)S1 (stereo unspecified)	-19.0%	nt	0.4%	3.3%	nt	?	nt	7.4%
COc1cc(NC2c3ncccc3C(=O)N2Cc2ccco2)cc(OC)c1 (stereo unspecified)	3.8%	3.6%	-31.7%	5.7%	-16.2%	-11.0%	1.0%	-3.4%
CCc1nnc(SCc2ccc(F)cc2Cl)c2cc3sccc3n12	-11.0%	15.7%	1.3%[46.1 µM]	nt	0.1%	nt	nt	nt
CCOC(=O)c1ccc[n+]([O-])c1	-2.0%	nt	-20.2%[46.1 µM]	nt	nt	1.9%[46.1 µM]	nt	-13.3%
Cc1ccccc1NC(=O)c1ccc2nc(Cc3ccccc3)oc2c1	3.5%	-5.6%	-8.7%[46.1 µM]	nt	-3.6%	nt	nt	nt
CC(C)COC(=O)c1nnsc1NC(=O)Nc1ccccc1	nt	15.8µM*	-26.2%	-1.8%	3.2%	?	1.6%	0.7%
COc1ccc2c(c1C)CCC(C)(C#N)C2=O (stereo unspecified)	-13.4%	nt	-19.2%[46.1 µM]	nt	nt	-3.2%[46.1 µM]	nt	10.3%

Reprinted from the part before: 2 compounds; new compounds follow.
SMILES	StopGo reporter	Cruzain noTriton	Lassa entry inh	SARS PLpro yeast	Cruzain inh Det	MARV entry inh	NS1 inh	RE007 growth inh
CC(C)COC(=O)c1nnsc1NC(=O)Nc1ccccc1	nt	15.8µM*	-26.2%	-1.8%	3.2%	?	1.6%	0.7%
COc1ccc2c(c1C)CCC(C)(C#N)C2=O (stereo unspecified)	-13.4%	nt	-19.2%[46.1 µM]	nt	nt	-3.2%[46.1 µM]	nt	10.3%
COc1ccc2cc(CCN3C(=O)c4ccccc4C3=O)c(=O)[nH]c2c1	12.1%	11.6%	8.5%	10.9%	-0.1%	15.8%	20.3%	6.3%
CC(C)Oc1ccc(C(=O)Nc2ccc(Cl)c(S(=O)(=O)Nc3ccc(Cl)cc3)c2)cc1	-1.1%	?	11.2µM*	5.0%	-0.3%	?	-4.8%	6.1%
FC(F)(F)c1ccc(C2=Nc3ccccc3NC(c3cccs3)=N2)cc1	-12.4%	9.3%	9.8%[46.1 µM]	nt	-8.7%	-8.6%[46.1 µM]	nt	nt
Cc1ccc(NS(=O)(=O)c2ccc3c(c2)C(=O)c2ccccc2C3=O)c(C)c1	-23.8%	-1.1%	-7.4%	15.4%	-4.3%	-0.8%	-1.7%	-3.0%
CCOc1ccc(NC(=S)NC(=O)C2CCCC2)cc1	64.8%[activator]	nt	nt	22.3%	nt	nt	-4.3%	-24.1%
COc1ccc(C(=O)N(C)CC2CCN(CCc3cccc(C(F)(F)F)c3)CC2)cc1C	?	nt	nt	0.1%	nt	nt	15.4%	4.9%
O=C(Cc1ccccc1)NNS(=O)(=O)c1ccccc1[N+](=O)[O-]	7.3%	nt	?	1.9%	nt	8.1%[46.1 µM]	6.3%	-1.9%
O=C(COc1ccc(Cl)cc1)N1CCN(C2CCCC2)CC1	30.5%[activator]	nt	-2.4%[46.1 µM]	9.6%	nt	17.9%[46.1 µM]	1.5%	1.4%
COc1cc(CN(C)CC(=O)c2[nH]c(C)c(C(C)=O)c2C)ccc1OC(F)F	?	-0.9%	-22.9%	10.4%	-0.7%	?	3.3%	-8.2%
CC(C)N1C(=O)c2ccccc2C1C(=O)NCCc1ccccc1 (stereo unspecified)	-3.8%	nt	?	0.2%	nt	3.1%[46.1 µM]	2.3%	7.0%
Oc1ccc2ccccc2c1CN1CCN(C/C=C/c2ccccc2)CC1	-17.4%	nt	-17.0%[46.1 µM]	-6.6%	nt	?	-20.6%	-28.0%
CC(=O)Nc1ccc(S(=O)(=O)NCCOc2ccc(Cl)cc2C)cc1	-12.6%	nt	0.4%	-1.5%	nt	?	3.6%	8.7%
Cc1nc(SCc2cccc(F)c2)c2oc3ccccc3c2n1	-3.2%	nt	-5.1%	-0.8%	nt	25.6%	-1.9%	3.0%
Cc1ccc(S(=O)(=O)N(C)CC(=O)N/N=C/c2ccc(C)o2)cc1	0.0%	nt	nt	0.8%	nt	nt	1.4%	6.3%
CN(c1ccccc1)S(=O)(=O)c1ccc(-c2ccccc2)cc1	-7.4%	nt	nt	-0.5%	nt	nt	5.3%	-11.6%
COc1ccc(NCc2cc3ccc(OC)cc3n(CC(=O)Nc3ccc(C)c(C)c3)c2=O)cc1	-2.7%	-26.6%	2.4%[46.1 µM]	nt	-4.6%	nt	nt	nt
Cc1sc(NC(=S)NC(=O)c2cccs2)nc1-c1ccc(CC(C)C)cc1	5.4%	10µM*	9.4%	-2.5%	0.5%	-0.9%	5.5%	11.7%
Cn1cc(SCC(=O)NC2CCCCC2)c2ccccc21	36.3%[activator]	nt	nt	-7.1%	nt	nt	-13.2%	-5.3%
COc1cccc(CNC(=O)CSCc2cnn(-c3ccccc3)c2-n2cccc2)c1	?	9.4%	-22.8%	-5.8%	-3.3%	?	-59.6%	2.4%
CCCCCc1c(C)nc(N2CCc3ccccc32)[nH]c1=O	-20.1%	-18.5%	0.0%	-13.0%	-0.3%	5.2%	-7.1%	-11.2%
COc1cccc(NC(=O)c2nc(S(C)(=O)=O)ncc2Cl)c1	22.4µM*	nt	?	-2.6%	nt	?	-10.7%	-1.1%
COc1ccccc1NS(=O)(=O)c1cccc(N=C2N=C(N)c3ccccc32)c1	-20.6%	10.2%	-26.1%	-21.0%	-10.6%	-23.8%	11.1%	-12.5%
Cc1cc(C)n(-c2nc(-c3ccc(Cl)cc3)cs2)n1	54.0%[activator]	-8.3%	28.2%	-5.5%	-7.1%	2.2%[46.1 µM]	?	2.7%
CC(OC(=O)c1nn(C(C)C)c(=O)c2ccccc12)C(=O)Nc1ncc(Cl)cc1Cl (stereo unspecified)	-25.1%	-3.5%	16.4%	26.1%	-2.8%	-0.4%	1.2%	-5.9%
Cc1cc2oc(C(=O)Nc3ccc(S(=O)(=O)Nc4ncccn4)cc3)cc(=O)c2cc1C	-1.2%	-3.2%	-1.0%[46.1 µM]	nt	-0.7%	-1.2%[46.1 µM]	nt	nt
O=C(Cc1ccc(Cl)cc1)NNc1c(F)c(F)cc(F)c1F	13.6%	-6.1%	0.6%	-7.3%	-3.2%	11.8%	-8.5%	12.6%
CCN(CC)CCCNC(=O)c1cc(-c2ccc(OC)c(OC)c2)on1	1.3%	-5.0%	-4.2%[46.1 µM]	nt	-1.8%	15.0%[46.1 µM]	nt	nt
COc1ccc(N(C2=NCCCS2)S(=O)(=O)c2ccc(C(C)(C)C)cc2)cc1	-5.9%	nt	-20.2%[46.1 µM]	-0.2%	nt	19.7%[46.1 µM]	0.9%	32.2%
